TRPML1 ag: activates the human TRPML1 channel. Q9GZU1. TRPML1-expressing cells, Ca2+ dye fluorescence, FDSS; host cell line not named in the record; reference of the full effect not given here. activation, % (concentration not given with the values). actives 0.12% (n = 410,000). AID 624414; in the data active = activation above about 50%; inconclusive = about 30% to 50%; inactive = below about 30%; note: 0% is about no effect; the text of the record puts the active cut at 80%
Target sequence (Q9GZU1 whole entry, looked up): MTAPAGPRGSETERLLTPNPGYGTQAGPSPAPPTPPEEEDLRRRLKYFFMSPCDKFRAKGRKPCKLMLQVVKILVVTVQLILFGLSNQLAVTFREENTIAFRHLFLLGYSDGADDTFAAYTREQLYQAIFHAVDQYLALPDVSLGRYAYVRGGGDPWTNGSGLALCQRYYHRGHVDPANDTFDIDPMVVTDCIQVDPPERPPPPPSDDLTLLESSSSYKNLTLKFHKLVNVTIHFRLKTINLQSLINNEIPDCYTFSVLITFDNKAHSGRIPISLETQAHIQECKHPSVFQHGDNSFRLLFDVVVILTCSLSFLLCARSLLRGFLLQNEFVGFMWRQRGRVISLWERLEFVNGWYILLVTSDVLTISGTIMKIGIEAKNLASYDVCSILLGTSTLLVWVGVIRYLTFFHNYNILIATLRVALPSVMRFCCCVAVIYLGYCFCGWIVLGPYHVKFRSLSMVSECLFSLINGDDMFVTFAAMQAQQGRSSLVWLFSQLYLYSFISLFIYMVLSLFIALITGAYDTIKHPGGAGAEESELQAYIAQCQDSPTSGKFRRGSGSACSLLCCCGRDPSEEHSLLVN
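Calcium fluorescence on an FDSS kinetic reader gave the read-out. Tet-induced TRPML1-DL cells were plated overnight, dye-loaded (Ca8 with quencher, 45-90 min, room temperature, dark), then read 110 s after compound addition, and again 110 s after 4uM final 54-4 (EC80).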
PINK1 modulator: modulators of PINK1 expression | PINK1 immunofluorescence, high-content cytometry, 24 h | actives 0.2% (n = 410,000) | Potency, µM (series often up to 76.6 µM), inactives show top-dose activation (PINK1 increase), hits mostly activators | AID 624263; active = well fitted activation curve with a large enough effect; inconclusive = small, poorly fitted or top-dose-only effect; inactive = flat fitted curve, though single readings scatter; cell line not stated here;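 note: potency is the fitted concentration of half-maximal effect; % of control where 0% means no effect; nearly all actives have a fitted effect of over 65% in size; a mitochondrial uncoupler was the plate control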
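Cells are seeded, rested 12 hours, then given compound at five concentrations or DMSO for 24 hours. After fixation, blocking and antibody staining, PINK1 amount and mitochondrial localization are scored; CCCP serves as control.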
CtBP-E1A blk: CtBP/E1A binding inhibition; AlphaScreen GST-E1A/His-CtBP binding, 1536-well; stronger effect = lower value; control for the full effect not named in the record; activity change, % (test concentration not listed); actives 0.49% (n = 340,000); in the data active means activity change below about -65%; inconclusive means about -30% to -65%; inactive means above about -30%; note: % is set by controls: 0 for no effect and ±100 for the full control effect; compound concentration not given in the record
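GST-E1A and His-tagged CtBP (125 nM each as 5X stock) were preincubated with pin-transferred compound for 2 h at 37 °C in the dark, then glutathione donor and nickel acceptor beads were added for 1 h before AlphaScreen reading.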
D2 PAM: positive allosteric modulators of human D2 dopamine receptor; AID 624464; actives 0.23% (n = 360,000); potentiation, % (test concentration not listed); DiscoveRx D2 beta-arrestin cells, luminescence, 90 min; 100% = 57 uM dopamine signal; P14416; active = potentiation of 50% or more; inconclusive = 30% to 50%; inactive = 30% or less;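 note: compound concentration not given in the record; tested on top of an EC20 dose of dopamine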
Target sequence (P14416 whole entry, looked up): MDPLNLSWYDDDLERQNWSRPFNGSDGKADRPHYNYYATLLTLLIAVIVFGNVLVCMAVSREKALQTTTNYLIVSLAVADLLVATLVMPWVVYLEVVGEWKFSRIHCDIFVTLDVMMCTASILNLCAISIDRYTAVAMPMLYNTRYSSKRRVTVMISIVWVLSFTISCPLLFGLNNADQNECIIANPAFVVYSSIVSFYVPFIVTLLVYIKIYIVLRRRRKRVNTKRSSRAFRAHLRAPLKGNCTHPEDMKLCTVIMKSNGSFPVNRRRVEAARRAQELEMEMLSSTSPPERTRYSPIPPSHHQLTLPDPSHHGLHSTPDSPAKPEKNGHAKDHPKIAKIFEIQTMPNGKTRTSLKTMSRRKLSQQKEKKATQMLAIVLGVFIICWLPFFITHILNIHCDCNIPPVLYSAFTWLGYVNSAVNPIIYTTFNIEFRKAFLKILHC
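PathHunter beta-arrestin assay in DiscoveRx D2 cells. Compounds were added with an EC20 of dopamine (50 nM final) for 90 min at 37 deg C. Luminescence was read 1 h after detection reagent, with 57 uM dopamine as the EC100 control.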
Six1-Eya2 inh: inhibitors of human Six1/Eya2 interaction; Q15475+O00167; AlphaScreen GST-Six1/His-Eya2 binding, biochemical; stronger effect = lower value; control for the full effect not named in the record; activity change, % (test concentration not listed); actives 0.56% (n = 360,000); AID 651725; in the data active = activity change below about -65%; inconclusive = about -30% to -65%; inactive = above about -30%; note: % is set by controls: 0 for no effect and ±100 for the full control effect; compound concentration not given in the record
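Homogeneous AlphaScreen proximity assay pairing GST-Six1 with His-tagged Eya2 (added as 5X mix: 250 nM and 500 nM) in 50 mM Tris pH 8.0, 300 mM NaCl, 1 mM TCEP. Glutathione donor and nickel acceptor beads; 1 h, 37 °C, dark.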
D2 ag: agonists of human D2 dopamine receptor (beta-arrestin). P14416. DiscoveRx PathHunter D2 beta-arrestin, luminescence, 90 min; 100% = 57 uM dopamine signal. activation, % (no concentration beside the values). actives 0.084% (n = 360,000). AID 624465; in the data active = activation above about 40%; inconclusive = about 15% to 40%; inactive = below about 15%; note: compound concentration not given in the record; the text of the record calls up to 30% inactive
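Agonist mode: compounds alone added to overnight-plated D2 PathHunter cells for 90 min at 37 C, with 57 uM final dopamine (EC100) defining full response. Beta-arrestin recruitment detected by chemiluminescent reagent, read after 1 h at ambient temperature.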
Starred values were filed as active, the others as inactive; ? = inconclusive; · = not tested or not shown; & = joins results of further samples; [ ] = another dose, or the depositor's remark.

SMILES	TRPML1 ag	PINK1 modulator	CtBP-E1A blk	D2 PAM	Six1-Eya2 inh	D2 ag
CSc1nc(N2CCOCC2)c2c(c1C#N)CC(C(C)C)OC2 (configuration not stated)	0.7	0.0%	3	-1	0	-1.9
CC(C)CNC(=S)NC(=O)c1csc([N+](=O)[O-])c1	0.9	8.5%	-13	-1	-1	3.4
Cc1ccc(CC2CC(=O)N(c3cc(C)on3)C2=O)cc1 (configuration not stated)	-1.3	0.1%	-18	-8	11	-3.4
CCCn1c(N)c(N(CCOC)C(=O)c2ccccc2F)c(=O)[nH]c1=O	-0.1	1.1%	5	2	10	4.5
COc1ccc(CCN=C(N)NS(=O)(=O)c2cccs2)cc1	-0.5	-1.0%	4	-1	1	1.9
Cc1ccc(C(=O)Nc2ccon2)cc1S(=O)(=O)N1CCCC1	0.2	3.9%[38.3 µM]	-6	-13	-9	-0.2
COc1ccc(NC(=O)CSc2nc3nc(C)cc(C)n3n2)cc1	-0.1&1.0	-1.4%&0.8%	-2	-5	-11	0.1
CCOC(=O)NC(=O)C(=CNc1ccccc1OC)C(=O)NC(=O)OCC	-0.6	1.7%	5	2	0	-1.7
CCOC(=O)C1(Cc2ccccc2)CCN(Cc2cn(CC(=O)OC)c3ccccc23)CC1	0.1	-0.4%	1	-9	-2	-6.4
Cc1ccc(NC(=O)CCNS(=O)(=O)c2ccc3c(c2)CCC(=O)N3)cc1C	0.3	0.1%	5	-13	-1	-2.5
O=C(Nc1ccccc1[N+](=O)[O-])c1ccc(S(=O)(=O)N2CCCC2)cc1	-0.6	0.1%	-16	15	-15	1.3
CCOC(=O)C1=C(c2ccccc2)OC(N)=C(C#N)C1C1CCCCC1 (configuration not stated)	1.7	1.9%	-1	-13	-10	-2.2
COc1ccc(C(=O)NCC(=O)N/N=C/c2cccnc2)cc1	-0.2	-0.7%	12	-25	3	-7.0
Cc1cccc2nc(CSc3nc4ccccc4o3)cn12	-0.1	-2.1%	5	-19	18	-5.0
O=C(COC(=O)[C@@H]1CCCN1C(=O)c1cccs1)NCCc1ccccc1	-0.7	-1.7%	0	0	-1	-2.7
COc1ccc(C2CC(=O)n3c(nc4ccccc43)S2)cc1OC (configuration not stated)	-0.7	-0.8%	0	3	6	-1.5
CCOC(=O)C1C(=O)NC(N2CCc3ccccc32)=NC1c1ccccc1 (configuration not stated)	-0.3	-2.0%	-3	-3	8	-0.9
O=C1Nc2ccccc2C1(c1ccccc1)c1ccccc1	1.2	0.0%	10	-10	-7	-5.9
Cc1cc2oc(=O)cc(CN3CCN(Cc4ccccc4)CC3)c2cc1O	1.0	2.2%	·	-12	-2	-7.0
COc1ccc(C(C(=O)NC(C)(C)C)N(C(=O)CCC(=O)Nc2cc(C)on2)c2ccccc2F)cc1 (configuration not stated)	-0.6	1.4%	-10	-6	-3	0.2
Cc1nn(Cc2c(Cl)cccc2Cl)c(C)c1NC(=O)/C=C/c1cnn(C)c1C	-0.7	1.0%[38.3 µM]	13	0	-1	2.3
COc1ccc(C2CC3(CC(C)(C)NC(=S)N3)Oc3cc(O)cc(C)c32)cc1 (configuration not stated)	0.9	-4.5%	-6	14	-16	-2.2
CCN1CNC(=S)N(C(C)c2ccccc2)C1 (configuration not stated)	-0.2	-0.8%	-3	-17	18	-4.1
CCOc1cccc(-c2c(C(=O)N/N=C/c3ccncc3)nnn2-c2nonc2N)c1	-0.4	1.0%	-8	0	2	4.2
Cc1ccc(N(C(=O)CCC(=O)Nc2cc(C)on2)C(C(=O)NC2CCCC2)c2ccncc2)cc1 (configuration not stated)	0.3	2.1%	1	-18	-1	-3.7

Exported field by field: part of the list above
O=C(Nc1ccccc1[N+](=O)[O-])c1ccc(S(=O)(=O)N2CCCC2)cc1
  TRPML1 ag = -0.6
  PINK1 modulator = 0.1%
  CtBP-E1A blk = -16
  D2 PAM = 15
  Six1-Eya2 inh = -15
  D2 ag = 1.3
CCOC(=O)C1=C(c2ccccc2)OC(N)=C(C#N)C1C1CCCCC1 (configuration not stated)
  TRPML1 ag = 1.7
  PINK1 modulator = 1.9%
  CtBP-E1A blk = -1
  D2 PAM = -13
  Six1-Eya2 inh = -10
  D2 ag = -2.2

The main list resumes, starting two compounds before the break.
SMILES	TRPML1 ag	PINK1 modulator	CtBP-E1A blk	D2 PAM	Six1-Eya2 inh	D2 ag
CCOc1cccc(-c2c(C(=O)N/N=C/c3ccncc3)nnn2-c2nonc2N)c1	-0.4	1.0%	-8	0	2	4.2
Cc1ccc(N(C(=O)CCC(=O)Nc2cc(C)on2)C(C(=O)NC2CCCC2)c2ccncc2)cc1 (configuration not stated)	0.3	2.1%	1	-18	-1	-3.7
COc1ccc(OCCCN(C)Cc2ccccc2)cc1	0.4	0.0%	-27	-28	-7	0.5
c1ccc2c(c1)CCCN2Cc1nnnn1CC1CCCO1 (configuration not stated)	3.5	0.0%	-1	-10	-8	-6.6
O=C(NCCS(=O)(=O)N1CCN(c2ccccc2)CC1)C1CC(=O)N(c2ccccc2)C1 (configuration not stated)	-0.7&0.4	-0.1%&2.1%	·	-3	3	-0.4
CC1(C)OC2OC(C3COC(=O)O3)C(OC(=O)c3ccccc3)C2O1 (configuration not stated)	-0.4	-1.6%	5	-1	8	-1.0
O=c1c2c3c(sc2nc(NCCO)n1Cc1ccco1)CCCCC3	-0.8	-0.5%	-8	-9	-9	-1.3
COc1ccc(C)cc1N(CC(=O)NC1CCCC1)C(=O)CCC(=O)Nc1nc(C)cs1	1.4	1.8%	-10	-12	-4	-2.7
Cc1cc2c(ccc3[nH]onc32)n1	0.1	-0.3%	9	-3	15	0.2
OCC[C@@H]1C[C@H](O)[C@@H](O)[C@@]2(OCc3ccc4ccccc4c32)O1	0.1	1.6%	11	-2	5	-5.1
COCCn1c(NCc2ccco2)nc2c1c(=O)[nH]c(=O)n2C	-0.8	3.4%	0	-4	0	-0.1
CCCn1c(SCC(=O)NCc2ccc(OC)cc2)n[nH]c1=O	-0.4	-0.9%	4	0	4	-1.1
CCOc1ccc(N2CC(C(=O)NNC(=O)c3ccc(Br)cc3)CC2=O)cc1 (configuration not stated)	-0.9	-1.9%	-6	-9	10	-2.4
CCn1c(SCC(=O)c2ccc(OC)cc2)nnc1C1CC1	-0.1	-1.5%	2	-6	8	-1.4
CCC(C)n1c(=S)[nH]c2c(sc3ccc([N+](=O)[O-])cc32)c1=O (configuration not stated)	-0.1	?	-5	10	1	1.0
COCCN(C(=O)C1=COCCO1)c1c(N)n(Cc2ccccc2)c(=O)[nH]c1=O	0.5	-0.6%	6	-8	-1	-0.4
COC(=O)CSc1nc(NC(C)C)nc(N(C)C)n1	0.5	0.7%	9	14	4	4.1
CN=C1S/C(=C\c2ccc(N3CCOCC3)cc2C)C(=O)N1C	-0.3	8.9%	2	-2	3	-0.3
CCOC(=O)C1CCN(C(=O)Cn2cc(C#N)c3ccccc32)CC1	-0.6	-1.1%	4	3	2	-1.7
COc1ccccc1CNC(=O)c1ccccc1NC(=O)C1=C(C)OCCS1	-1.3	-0.2%	-6	-3	-7	-0.4
CCCCCn1nc(C(=O)N(CC)c2c(N)n(CCCC)c(=O)[nH]c2=O)c2ccccc2c1=O	-0.3	-0.8%	17	-12	15	-3.1
Cc1cccc(Nc2c([N+](=O)[O-])cc(C(=O)N3CC(=O)Nc4ccccc43)cc2[N+](=O)[O-])c1	3.0	0.7%	·	2	-14	3.9
Cc1ccc(C(CCNC(C)c2cccs2)c2ccco2)cc1 (configuration not stated)	0.7	3.6%	-16	-18	-3	-5.7
CCOC(=O)/C=c1\s/c(=C\c2c(OC)ccc3ccccc23)c(=O)n1CC(=O)NCC1CCCO1 (configuration not stated)	-0.3	3.3%[38.3 µM]	-10	-13	-5	-0.9
CNC(=O)COc1ccc(Nc2nnc(C)c3ccccc23)cc1	-0.6	-1.6%	-5	-2	-9	-0.9
COc1ccc(OC)c(NC(=O)CSc2nc(=O)n(Cc3ccccn3)c3c2CCC3)c1	1.4	0.0%	9	-4	0	1.0
COc1ccc(-c2c(-c3cc(OC)cc(OC)c3)n(C)c3ccc(-c4cccc5[nH]ccc45)cc23)cc1	0.2	-0.8%	?	-1	-9	-2.0
(list continues)
SMILES	TRPML1 ag	PINK1 modulator	CtBP-E1A blk	D2 PAM	Six1-Eya2 inh	D2 ag
CC(C)OCCCNC(=S)N1CCC(C(=O)c2ccc(F)cc2)CC1	-0.7	0.8%	1	-14	3	-7.5
COc1ccc(-c2cc(C(=O)N3CCCCCC3)c3ccccc3n2)c(OC)c1	0.3	0.0%	-3	7	-8	2.5
Clc1ccc(-c2noc(CCCOc3ccccc3)n2)cc1	0.2	-21%[38.3 µM]	23	-2	28	-3.6
COC(=O)c1sc(-c2ccc(C(C)(C)C)cc2)cc1NC(=O)/C=C/C(=O)O	0.9	-1.7%	11	-8	-4	-9.5
O=C(Nn1cc(C(=O)N2CCN(c3ccccc3F)CC2)c2ccccc2c1=O)c1cnccn1	1.2	-0.3%	?	-9	?	1.3
COc1ccc(OCC(O)CNC(=O)/C=C/c2cccc([N+](=O)[O-])c2)cc1 (configuration not stated)	-0.8	0.6%	0	-5	-1	-3.9
CCOC(=O)C1CCCN(Cc2cccc(Oc3ccccc3)c2)C1 (configuration not stated)	-0.4	19%	0	-35	-5	0.7
CC1(C)CC(=O)c2cc(O)ccc2O1	-0.5	-2.8%	2	-2	0	-1.1
COc1cccc2cc(S(=O)(=O)c3ccccc3)c(=Nc3ccc4c(c3)OCCO4)oc12	-0.5	-1.8%	0	17	-3	0.4
Cc1ccc(NC(=O)C2CC2)cc1S(=O)(=O)N1CCOCC1	-0.2	-0.2%	-1	-6	0	3.2
Cc1ccc(-n2c(=O)c3sccc3n(CC(=O)NCc3ccco3)c2=O)cc1	3.5	-2.1%[38.3 µM]	0	-12	-1	-2.4
Cc1ccc(/C=C/C(=O)Nc2ccc(S(=O)(=O)Nc3onc(C)c3C)cc2)cc1	?	1.5%	-21	9	14	-5.2
Cc1cc(NS(=O)(=O)c2ccc(NC(=O)CCCOc3ccccc3C)cc2)nc(C)n1	-1.4	1.9%	-15	-8	0	-5.4
CC(C)(C)NC(=O)c1cc(NC(=O)c2ccco2)cc(NC(=O)c2ccco2)c1	-0.3	1.0%	-5	7	-4	-2.6
Cn1c(=O)c2c(nc(N3CCN(c4ccccn4)CC3)n2Cc2ccc(Cl)cc2Cl)n(C)c1=O	-0.2	0.3%	5	-10	5	-4.0
O=C(NC1CCSc2ccccc21)c1cccc(S(=O)(=O)N2CCOCC2)c1 (configuration not stated)	-0.2	5.4%	1	-31	-1	1.7
O=C(CCCSc1nc2ccccc2[nH]1)NC(c1ccccc1)c1ccccc1	1.8	3.8%	-10	-5	-1	-1.4
CCOc1ccc(N(C(C)C(=O)N2CCCCCC2)S(C)(=O)=O)cc1 (configuration not stated)	·	1.7%	·	-2	-3	1.1
CCOCCC(=O)Nc1ccc2c(c1)c(=O)n(C)n2C/C=C/c1ccccc1	-0.4	7.5%	-3	-1	-7	2.5

A stretch taken from the entries so far, for reference:
SMILES	TRPML1 ag	PINK1 modulator	CtBP-E1A blk	D2 PAM	Six1-Eya2 inh	D2 ag
CCOc1ccc(N(C(C)C(=O)N2CCCCCC2)S(C)(=O)=O)cc1 (configuration not stated)	·	1.7%	·	-2	-3	1.1
CCOCCC(=O)Nc1ccc2c(c1)c(=O)n(C)n2C/C=C/c1ccccc1	-0.4	7.5%	-3	-1	-7	2.5
